VACV mCherry inh = inhibitors of vaccinia virus infection (mCherry reporter signal) | Vaccinia virus mCherry reporter infection, fluorescence; about a quarter of the inactives have no number | Potency, µM (top dose mostly 36.5 µM), for inactives: top-dose activity change, negative = inhibition, usual class: inhibitors | 310,000 tested, 0.63% active | AID 720579; active = well fitted inhibition curve with a large enough effect; inconclusive = small, poorly fitted or top-dose-only effect; inactive = no such curve, though single readings can be large or run the other way; tested in A549 cells; also: nearly all actives have a fitted effect of over 35% in size; inactives centre near -10
Vaccinia Venus = vaccinia inhibition (Venus reporter); Vaccinia virus Venus reporter expression, fluorescence; Potency, µM (highest dose often 36.5 µM), for inactives: at the top dose activity change, negative = inhibition, actives largely listed as inhibitors; 330,000 tested, 0.46% active; active means well fitted inhibition curve with a large enough effect; inconclusive means small, poorly fitted or top-dose-only effect; inactive means no such curve, though single readings can be large or run the other way; tested in A549 cells; also: nearly all actives have a fitted effect of over 30% in size; inactives centre near -10
Starred values were filed as active, the others as inactive; i = inactive; ? = inconclusive; nt = not tested or not shown; & = joins results of further samples; [ ] = another dose, or the depositor's remark. % is scaled to controls: 0 for no effect and ±100 for the full control effect; potency is read from the fitted curve at half-maximal effect.

Results follow in this order: Vaccinia Venus, VACV mCherry inh
- CCOc1ccc(C(=O)N2CCN(Cc3ccccc3)CC2)cc1
 : -5.3%, -0.7%
- CC(CCc1ccccc1)NC(=O)CN1CCSc2ccccc21 (centres undefined)
 : -12.7%, -18.4%
- CCOC(=O)C1(C)CCCN(C(=O)c2ccc(C#N)cc2)C1 (centres undefined)
 : 2.0%, 6.7%
- CCc1cccc(-n2nnc(-c3nsc(NC(=O)c4cccs4)n3)c2C)c1
 : -2.6%[7.34 µM], -15.8%[7.34 µM]
- CC(=O)Nc1cccc(-c2csc(C(O)c3ccccc3)n2)c1 (centres undefined)
 : ?, -14.8%
- Cc1nc(-c2ccc(S(=O)(=O)N3CCN(C4c5ccccc5-c5ccccc54)CC3)s2)cs1
 : -16.7%, i
- CN1CCN(S(=O)(=O)c2ccc(Cl)c(C(F)(F)F)c2)CC1
 : -8.3%, i
- Cc1ccccc1-c1nnc(CN2CCC(C)CC2)o1
 : -10.2%, i
- Cc1cc2c(cc1C)-n1c(-c3ccccc3)c3c(=O)n(C)c(=O)n(C)c3c1C(c1ccco1)N2 (centres undefined)
 : 0.0%, -6.9%
- C/C(N)=C(/C#N)C(=O)COC(=O)CNS(=O)(=O)c1c(F)cccc1F
 : -11.5%, i
- COc1ccccc1-c1cc(C(=O)Nc2ccccc2C(F)(F)F)no1
 : -10.3%, -1.8%
- CC1CCN(C(=O)CS(=O)(=O)Cc2ccccc2)CC1
 : -3.3%, i
- CCOc1ccc(NC(=O)CCCCn2c(=O)[nH]c3ccsc3c2=O)cc1
 : 10.6%, -3.8%
- COCCCN1CCN(c2nnc3n2-c2sc(Br)cc2C(c2ccccc2Cl)=NC3)CC1
 : 5.4%, i
- COC(=O)c1ccc([C@@H]2Nc3c(cccc3C(F)(F)F)[C@@H]3C=CC[C@@H]32)cc1
 : -17.7%, -4.7%
- Cc1ccc(C(=O)/C=C/Nc2ccc(S(=O)(=O)Nc3onc(C)c3C)cc2)cc1
 : -6.8%, -18.4%
- Cc1cc(NC(=O)CCC(=O)N(CC(=O)NC2CCCC2)c2ccc(Cl)cc2)no1
 : 1.9%, 11.0%
- O=C(N1CCOCC1)N1CCN(c2ccccc2F)CC1
 : -18.7%, i
- CC1CCCN(C(=O)Cc2ccc(F)cc2)C1 (centres undefined)
 : ?, -9.9%
- CSCCc1nc(SCC(=O)Nc2nnc(C)s2)[nH]c1C
 : -27.2%, nt
- CCCCNC(=O)C1C(c2ccc(OC)cc2)=Nc2ccccc2N1C(=O)Cc1cc(OC)cc(OC)c1 (centres undefined)
 : -13.7%, 0.3%
- CCCCNC(=O)C[C@@H]1C[C@@]2(C(=O)OCC)CCC=C2N(Cc2ccc3c(c2)OCO3)C1=O
 : -1.6%, 31.9%[activator]
- CC(C)c1ccc(S(=O)(=O)N2CCN(C(=O)CN3C(=O)NC4(CCCCC4)C3=O)CC2)cc1
 : -9.3%, -7.8%
- Cc1cc(C)n(-c2nc3ccccc3nc2N2CCN(c3cccc(C(F)(F)F)c3)CC2)n1
 : -8.0%, -4.7%
- O=C(O)CSc1ccnc2cc(Cl)ccc12
 : -5.2%[7.34 µM], i[7.34 µM]
- CC(O)CN1C(=O)C(CC(=O)Nc2ccc(Cl)cc2)SC1=Nc1ccccc1 (centres undefined)
 : ?, ?
- CCOc1ccc(-c2nc(CN3CCCC(C(=O)N4CCOCC4)C3)c(C)o2)cc1 (centres undefined)
 : -12.8%, -0.2%
- CCOC(=O)Cn1cc(C#N)c2cccc(CC)c21
 : -12.8%, i
- Cc1ccc(N2C(SCC(=O)O)=NC(=Nc3cccc(C)c3)C23CCCC3)cc1
 : -2.3%, -12.7%
- O=C(NNc1cc(C(F)(F)F)ccc1Cl)c1ccc(=O)[nH]c1
 : -0.4%, ?
- CC(C)CCNC(=O)CN(Cc1ccccc1)C(=O)CCC(=O)Nc1nccs1
 : -6.7%, -3.1%
- COC(=O)c1ccc(C(=O)N2CCCC(CNC(=O)c3ccccc3Cl)C2)cc1 (centres undefined)
 : -11.9%, i
- COc1c(OC)c(O)c2c(=O)cc(-c3c(O)cccc3O)oc2c1OC
 : -16.5%, 2.3%
- CC(C)OC(=O)/C(=C/c1cccnc1)NC(=O)c1ccccc1
 : -4.3%, -14.2%
- Cc1cccc2nc(Cn3c(=O)n(-c4ccccc4)c(=O)c4c5c(sc43)CCC5)cc(=O)n12
 : -6.2%, -7.8%
- CC(C)CCn1cnc2c1c(=O)n(C)c(=O)n2C
 : -29.8%, nt
- CC(=O)N(C)c1ccc(NC(=S)Nc2ccc(C(C)C)cc2)cc1
 : -28.1%, ?
- CC(=O)O[C@@H]1/C=C/[C@](C)(O)C[C@@H](C)C/C=C/[C@H]2[C@H](O)C(C)=C(C)[C@H]3[C@H](Cc4ccccc4)NC(=O)[C@@]123
 : -26.8%, 2.1%
- COc1cccc(NC(=O)COc2ccc(C(=O)N3CCN(C)CC3)cc2)c1
 : 4.6%, -6.4%
- O=C1ON=C(c2ccccc2)/C1=C/c1ccc(O)c(O)c1
 : -18.2%, -17.4%
- CNC(=O)c1nc(C)c(C2(C)CC(c3ccccc3)=NO2)s1 (centres undefined)
 : -10.9%, -7.5%
- COc1ccccc1C(O)P(=O)(OC1CCCCC1)OC1CCCCC1 (centres undefined)
 : -4.8%, -14.2%
- Cc1ccccc1-c1ccc(Nc2ccc(C(=O)N3CCOCC3)cc2)nn1
 : -11.8%, -14.9%
- COC(=O)Nc1sc(C(=O)N(C)C)c(C)c1C(=O)OC
 : -13.6%, nt
- O=C(CCn1cccc1)Nc1ccccc1F
 : -8.4%, nt
- CC(NC(=O)CN1C(=O)NC2(CCCCCC2)C1=O)c1ccccc1 (centres undefined)
 : -7.0%, -9.8%
- COc1cc(C2SCC(=O)N2c2c(C)n(C)n(-c3ccccc3)c2=O)ccc1O (centres undefined)
 : -2.5%, i
- CC(C)n1ncc2c(C(=O)NCCc3ccc(F)cc3)cc(C3CC3)nc21
 : -23.6%, -13.2%
- CC(=O)c1ccc(N(CC(=O)NCc2ccc3c(c2)OCO3)C(=O)c2csnn2)cc1
 : ?, -20.2%
- CCn1c(CNC(=O)c2cccc(C)c2)nnc1SCC(=O)Nc1cccc(OC)c1
 : -4.9%, -8.4%
- CCOC(=O)C(=O)N1c2ccccc2C(N(C(=O)C(=O)OCC)c2ccccc2)CC1C (centres undefined)
 : 2.7%, -23.9%
- CCSc1nc(N)c(NC(=O)c2ccc(Br)o2)c(=O)[nH]1
 : -8.6%, -13.1%
- COc1ccc(NC(=O)/C=C/c2ccccc2)c([N+](=O)[O-])c1
 : -9.4%, -19.7%
- N#Cc1cccc(C(=O)OCC(=O)NCc2ccco2)c1
 : -1.3%, -5.2%
- Cc1ccc(-c2nnc(Nc3cccc(Cl)c3)c3ccccc23)cc1S(=O)(=O)N1CCN(C)CC1
 : ?, ?
- O=C(COc1ccc(C(=O)NCCc2ccccc2)cc1)Nc1ccccc1
 : -8.2%, 4.0%
- COc1ccc2c(c1OC)C(=O)N1N=C(c3ccc(Cl)cc3)CC21 (centres undefined)
 : -10.4%, -23.7%
- COC(=O)c1ccc2nc(-c3cccc(Br)c3)c(Cc3ccc(OC)cc3C)n2c1
 : -3.3%, 24.3%
- Cc1ccc(-n2c(-c3ccco3)nc3c(cnn3-c3ccc(C)cc3)c2=O)cc1
 : -22.9%&-27.8%, -17.7%&-13.0%
- O=C(CSc1nnc(-c2ccccn2)o1)Nc1ccccc1Cl
 : -8.5%, -7.4%

Next part:
Results follow in this order: Vaccinia Venus, VACV mCherry inh
- COC(=O)c1cccc(C23CC4(C2)[C@H](CN(CC2CCCCC2)[C@@H]4c2ccccc2)C3c2ccccc2)c1 (some centres undefined)
 : 9.8%, ?
- NC(=O)C1CCN(CCC(=O)Nc2cccc(Cl)c2)CC1
 : -4.1%, -14.3%
- O=C(COC(=O)CNC(=O)c1ccccc1)NCc1ccc2c(c1)OCO2
 : -8.5%, i
- COc1ccc(CCNC(=O)CCCOc2ccc(Cl)cc2)cc1OC
 : -24.0%, -9.2%
- COc1ccc2nc(NC(=O)C3CCN(S(=O)(=O)c4cccc5nsnc45)CC3)sc2c1
 : ?, ?
- CCn1c(SCC(N)=O)nnc1-c1ccc2c(c1)OCO2
 : 4.8%, i
- CCO[C@@H]1OC(C(=O)N2CCN(Cc3ccccc3)CC2)=C[C@H](C2CC2)[C@H]1CCCO
 : -16.7%, i
- COc1cc(OC)c(N(C)S(=O)(=O)c2cccc(C(=O)OCC(=O)N(C)C3CCCCC3)c2)cc1Cl
 : -11.9%, -15.3%
- COc1cccc(/C=C/C(=O)OCC(=O)N2c3ccccc3CC2C)c1 (centres undefined)
 : -3.8%, i
- CCN1C[C@@H]2[C@@H]3C(=O)N(Cc4ccccc4)C(=O)[C@@H]3[C@](CC)(C1=O)N2C(=O)c1ccccc1
 : -7.0%, i
- Cc1onc(-c2ccccc2)c1C(=O)NNC(=S)NC(=O)/C=C/c1ccccc1
 : -25.7%, ?
- C[C@@H]1CN([C@@H](C)CO)C(=O)c2cc(NC(=O)Nc3ccc(F)cc3)ccc2O[C@@H]1CN(C)Cc1ccc(Oc2ccccc2)cc1
 : 10µM*, ?
- N/C(CC1CC1(Cl)Cl)=N\OC(=O)c1ccccc1 (centres undefined)
 : 0.3%, i
- COc1ccc2nc(Cl)c(/C=N/Nc3ccccn3)cc2c1
 : 3.8%, -8.4%
- C[C@H](CO)N1C[C@H](C)[C@H](CN(C)C(=O)c2ccc(N3CCN(C)CC3)cc2)OCc2cnnn2CCCC1=O
 : -8.0%, -6.4%
- N#CC1=C(N)S[C@H](C(=O)C23CC4CC(CC(C4)C2)C3)[C@H]1c1ccncc1
 : -27.4%, nt
- CCn1cc(CN2CCCC(C(=O)c3cccc(OC)c3)C2)c(C)n1 (centres undefined)
 : -21.2%, -19.1%
- CCN1CCN(C(=O)/C=C/c2ccc(C)o2)CC1
 : 1.6%, -13.1%
- COc1ccc(-c2cn3c(n2)sc2cc(C(=O)NCCc4ccc(OC)cc4OC)ccc23)cc1
 : -7.1%, -6.2%
- Cc1cc(C(F)F)n2nc(C(=O)Nc3c(C)cccc3C)nc2n1
 : -4.9%, 14.0%
- Nc1nonc1-n1nnc(C(=O)N/N=C/c2cccs2)c1CSc1ccccc1
 : 0.0%[7.34 µM], -2.8%[7.34 µM]
- CCC(=O)N1CCC(C)(C(=O)Nc2cc(OC)c(OC)c(OC)c2)C1 (centres undefined)
 : 0.1%, 52.2%[activator]
- C/C(=C\C(=O)OCCCCCCCCC(=O)O)C[C@@H]1OC[C@H](C[C@@H]2O[C@H]2[C@@H](C)[C@H](C)O)[C@@H](O)[C@H]1O
 : -8.5%, i
- O=C(Nc1sc2c(c1C(=O)NCC1CCCO1)CCC2)c1cc(=O)c2ccccc2o1 (centres undefined)
 : -9.4%, -9.5%
- CCCCC(c1nnnn1C(C)C)N1CCN(C(=O)c2ccco2)CC1 (centres undefined)
 : -14.4%, -17.4%
- C=CCN=c1scc(-c2ccccc2)n1/N=C/c1ccccn1
 : 12.7%&9.7%, 2.24µM*
- Cc1cccc(NC(=O)c2oc(=O)c3ccccc3c2-c2ccccc2)c1C
 : -13.5%, i
- COc1cc(NCc2ccccc2)c2ncn(C(C)C)c2c1
 : -23.0%, -24.9%
- COc1ccccc1C(=O)Nc1ccc(CN2CCCCC2)cc1
 : -12.3%, -13.5%
- NC(=O)c1ncn([C@@H]2O[C@H](CNCc3cccn3-c3ccncc3)[C@@H](O)[C@H]2O)n1
 : -10.8%, -4.4%
- COc1ccc2c3c([nH]c2c1)C(C)N(C(C)=O)CC3 (centres undefined)
 : -9.5%, i
- CC1CC(OC(=O)c2ccccc2C(=O)c2ccc(Cl)cc2)C(=O)O1 (centres undefined)
 : -7.6%, -13.8%
- CC(C)N(Cc1ccccc1)C(=O)CSc1nccn1C
 : -3.9%, -12.6%
- CCc1ccc(NC(=O)Cn2c(=O)n(Cc3nc(-c4ccccc4)no3)c(=O)c3cc4c(cc32)OCO4)cc1
 : -9.9%, -4.0%
- COc1ccc(Cl)cc1-c1nc(SCC(=O)N(C)C2CCS(=O)(=O)C2)n[nH]1 (centres undefined)
 : 3.7%, -4.0%
- Cc1cc(C(=O)Nc2c[nH]c(=O)[nH]c2=O)ccc1[N+](=O)[O-]
 : -10.3%, ?
- COc1ccc(/C=C/C(=O)OCC(=O)N(C)c2c(N)n(Cc3ccccc3)c(=O)[nH]c2=O)cc1OC
 : -9.4%, -9.7%
- C[C@H](NC(=O)OC(C)(C)C)c1nnc(SCc2c(F)cccc2Cl)o1
 : 2.5%, -3.7%
- Oc1ccc(/C=N/Nc2nc(N3CCCC3)nc(N3CCCC3)n2)cc1O
 : -9.6%, -8.3%
- CC1CC(C)C(=O)C(C(CC2CC(=O)NC(=O)C2)OC(=O)CC(=O)c2ccccc2)C1 (centres undefined)
 : 1.78µM*, 3.98µM*
- CC(=O)c1ccc(OC(C)C(=O)OCC(=O)NCCc2ccccc2)cc1 (centres undefined)
 : 2.8%, -9.5%
- O=C(O)CCN1CCOCC1
 : 9.5%, nt
- O=C(O)c1cccnc1C(=O)c1ccccc1
 : -8.9%[7.34 µM], i[7.34 µM]
- CCn1nc(NC(=O)c2ccco2)c2cc3ccccc3nc21
 : -10.1%, -6.8%
- CS(=O)(=O)c1ccc(Cl)c(S(=O)(=O)NCc2ccccc2)c1
 : -10.4%, i
- O=C(Cn1ccn(-c2ccc(F)c(F)c2)c(=O)c1=O)Nc1ccccc1F
 : -1.3%, -8.4%

Shown with bars between the fields: part of the list above.
canonical_smiles | Vaccinia Venus | VACV mCherry inh
Oc1ccc(/C=N/Nc2nc(N3CCCC3)nc(N3CCCC3)n2)cc1O | -9.6% | -8.3%
CCn1nc(NC(=O)c2ccco2)c2cc3ccccc3nc21 | -10.1% | -6.8%

High-throughput results from PubChem BioAssay.
